Cruzain inh Det: blocks cruzain activity in presence of Triton detergent; purified cruzain, Z-FR-AMC fluorescence, 0.01% Triton; hit rate 0.43% among 200,000; AID 1478; Potency, µM, without a hit: max response, negative = inhibition, most hits filed as inhibitors; P25779;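 further: plate controls were neutral wells for no effect and buffer without enzyme for full effect; nearly all actives have a fitted effect of over 40% in size; top concentration of the series not given in the record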
Target sequence (P25779 123-467 limits assumed): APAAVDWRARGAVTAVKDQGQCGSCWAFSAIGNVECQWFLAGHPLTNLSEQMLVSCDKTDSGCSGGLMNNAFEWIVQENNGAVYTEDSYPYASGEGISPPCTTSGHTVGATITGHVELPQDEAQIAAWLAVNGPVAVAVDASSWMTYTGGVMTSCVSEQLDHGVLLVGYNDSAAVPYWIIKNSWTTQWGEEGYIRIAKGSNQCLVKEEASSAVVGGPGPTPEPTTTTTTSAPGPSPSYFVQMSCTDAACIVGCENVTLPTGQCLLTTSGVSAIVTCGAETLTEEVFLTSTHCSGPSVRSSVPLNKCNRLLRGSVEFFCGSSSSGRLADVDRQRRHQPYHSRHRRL
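Sodium acetate buffer (100 mM, pH 5.5) containing 5 mM DTT and 0.01% Triton X-100 hosted 1.5 nM cruzain and test compound for 15 min at room temperature. Cleavage of 2 uM Z-FR-AMC was then tracked by fluorescence.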
NS1 function inh: inhibitors of influenza NS1 protein function; hit rate 0.4% among 270,000; Potency, µM (highest dose often 46.1 µM), for the others: at the highest dose activity, positive = more growth; S. cerevisiae slowed by influenza A NS1, growth recovery by OD600; AID 2326; active means well fitted rising curve with a large enough effect; inconclusive means small, poorly fitted or top-dose-only effect; inactive means no such curve, though single readings can be large or run the other way; further: nearly all actives have a fitted effect of over 50% in size
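Recovery from NS1-induced slow growth read by OD600 in budding yeast switched to galactose assay medium (pH 6.0, -URA) at 1:100 dilution. Compound 23 nl per well; the matching strain lacking NS1 serves as control.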
LASV entry inh: blocks Lassa virus binding to or entry into cells | Lassa virus pseudotype entry inhibition, cell reporter; control for the full effect not named in the record | Potency, µM (highest dose often 37.9 µM), for the others: at the top dose activity change, negative = inhibition, usual class: inhibitors | hit rate 1.2% among 300,000; active means well fitted inhibition curve with a large enough effect; inconclusive means small, poorly fitted or top-dose-only effect, or effect the other way; inactive means flat fitted curve, though single readings scatter; tested in HEK293 cells; further: on the % scale 0 is the no-effect control and ±100 the full control effect; nearly all actives have a fitted effect of over 50% in size; luciferase read-out
SARS PLpro yeast: inhibitors of SARS-CoV papain-like protease in yeast. S. cerevisiae expressing SARS-CoV PLpro, growth rescue; control for the full effect not named in the record. Potency, µM (series often up to 32.9 µM), for inactives: at the top dose activity, positive = growth rescue. hit rate 0.19% among 330,000; active means well fitted rising curve with a large enough effect; inconclusive means small, poorly fitted or top-dose-only effect; inactive means no such curve, though single readings can be large or run the other way; further: 0% is about no effect; nearly all actives have a fitted effect of over 55% in size; growth read by luminescence after 48 h
MARV entry inh: Marburg virus entry inhibition; Marburg virus pseudotyped entry inhibition, cell reporter; control for the full effect not named in the record; about a third of the inactives were read at about 46 µM; Potency, µM (highest dose often 37.8 µM), for inactives: at the top dose activity change, negative = inhibition, hits mostly inhibitors; hit rate 1.8% among 300,000; active = well fitted inhibition curve with a large enough effect; inconclusive = small, poorly fitted or top-dose-only effect, or effect the other way; inactive = flat fitted curve, though single readings scatter; tested in HEK293 cells; about a fifth of its hits are not listed in these tables; further: on the % scale 0 is the no-effect control and ±100 the full control effect; luciferase read-out
Cruzain inh noDet: blocks cruzain activity in detergent-free assay; Potency, µM, without a hit: max response, negative = inhibition, most hits filed as inhibitors; purified cruzain, Z-FR-AMC fluorescence, no detergent; P25779; hit rate 2.3% among 200,000;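 further: plate controls were enzyme without inhibitor for no effect and buffer without enzyme for full effect; nearly all actives have a fitted effect of over 40% in size; top concentration of the series not given in the record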
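Detergent-free condition (0.00005% Triton X-100) in acetate buffer pH 5.5 with DTT. 1.5 nM enzyme and compound were pre-mixed 15 min, then 2 uM Z-FR-AMC substrate added; reaction progress from fluorescence change between first and third reads (60 s).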
StopGo reporter: FMDV 2A StopGo reporter, luciferase signal. human cells with a luciferase reporter of 2A StopGo recoding; control for the full effect not named in the record. Potency, µM (highest dose often 57.9 µM), for inactives: at the highest dose signal change, negative = less light. hit rate 1.2% among 410,000; active = well fitted falling curve with a large enough effect; inconclusive = small, poorly fitted or top-dose-only effect; inactive = no such curve, though single readings can be large or run the other way; tested in HEK293T cells; further: on the % scale 0 is the no-effect control and ±100 the full control effect; nearly all actives have a fitted effect of over 45% in size; luciferase light after 4 h
RE007 growth inh: less growth of the S. pombe RE007 Vpr strain; S. pombe RE007 Vpr strain, BacTiter-Glo ATP luminescence, 24 h; control for the full effect not named in the record; hit rate 0.21% among 360,000; Potency, µM (top dose mostly 92.2 µM), without a hit: top-dose activity change, negative = less growth; active = well fitted falling curve with a large enough effect; inconclusive = small, poorly fitted or top-dose-only effect; inactive = no such curve, though single readings can be large or run the other way;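 further: on the % scale 0 is the no-effect control and ±100 the full control effect; nearly all actives have a fitted effect of over 50% in size; the assay follows cell death caused by Vpr and the record does not say whether a fall means rescue or toxicity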
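Fission yeast RE007 carrying one integrated HIV-1 vpr copy, seeded at OD 0.01 in PMG+AL medium with 23 nL pinned compound. Grown 24 h at 30 degrees; viability read by BacTiter-Glo luminescence after 5 min.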
* marks the source's active call; other numbers are inactive results; ? = inconclusive; nt = no result given; & = joins results of further samples; [ ] = dose if it differs, or a comment. Unless noted, the call rests on the fitted dose curve; in most records, active means well fitted curve in the direction sought with a large enough effect; inconclusive means small, poorly fitted or top-dose-only effect, or another doubt; inactive means no such curve, though single readings can be large; an effect the other way counts as inactive or inconclusive. Potency means the concentration at half of the fitted maximal effect.

SMILES	Cruzain inh Det	NS1 function inh	LASV entry inh	SARS PLpro yeast	MARV entry inh	Cruzain inh noDet	StopGo reporter	RE007 growth inh
CCN(CC)S(=O)(=O)c1ccc2c(c1)N(CC(=O)N1CCN(c3cccc(C)c3C)CC1)C(=O)CO2	-2.1%	nt	-7%[46.1 µM]	nt	nt	?	-15%	nt
Cc1cc(=O)n2nc(N3CCCC3C(=O)Nc3cccc(Cl)c3C)sc2n1 (configuration not stated)	nt	7%	nt	0%	nt	nt	-14%	-1%
O=C(COc1ccccc1[N+](=O)[O-])c1ccccc1	nt	-11%	-4%	-4%	-14%[46.1 µM]	nt	15%	-25%
COc1ccc(-c2noc(-c3ccc(N4CCOCC4)c([N+](=O)[O-])c3)n2)cc1OC	-3.5%	nt	10%[46.1 µM]	nt	0%[46.1 µM]	12%	0%	nt
COc1ccc(S(=O)(=O)N2CCOCC2)cc1NC(=O)COc1ccccc1OC	nt	4%	nt	11%	-7%[46.1 µM]	nt	-11%	-5%
Cc1cc2c(c(=O)n1C1CC1)C(c1cccc(Cl)c1)C(C#N)=C(N)O2 (configuration not stated)	-2.4%	?	-1%	-10%	-1%	-7%	-1%	-4%
CC(OC(=O)COc1ccc(Nc2ccccc2)cc1)C(=O)N(C)c1ccccc1 (configuration not stated)	nt	nt	-4%[46.1 µM]	-10%	-1%	nt	?	4%
CCc1ccc(NC(=O)C(=O)c2cn(CC(=O)N3CCCCC3)c3ccccc23)cc1	-7.9%	-49%	7%	3%	28%	-26%	-10%	-23%
CN(C)S(=O)(=O)c1ccc(Cl)c(NC(=O)COC(=O)[C@@H]2CCCN2C(=O)c2cccs2)c1	nt	nt	-13%	0%	20%	nt	0%	-5%
CCc1ccc(NC(=O)CSC2=Nc3ccccc3C3=NC(CCC(=O)NCc4ccccc4)C(=O)N23)cc1 (configuration not stated)	3.7%	nt	-2%[46.1 µM]	nt	nt	22%	13%	nt
CCOC(=O)c1cc2cc(CC(=O)c3ccc(OCC)cc3O)ccc2o1	-12%	9%	-8%	-14%	17%[46.1 µM]	-4%	-23%	5%
COc1cc(CN(C(=S)NCC(=O)N2CCCC2)C2CCCC2)cc(OC)c1OC	nt	nt	7%	2%	17%[46.1 µM]	nt	16%	-3%
O=C(NC(Cc1ccccc1)C(=O)O)/C(=C\c1ccc([N+](=O)[O-])cc1)NC(=O)c1ccco1 (configuration not stated)	nt	6%	3%	1%	?	nt	-8%	3%
CC(C)CN(CCCNC(=O)c1cc(=O)[nH]c2ccc(S(=O)(=O)N3CCCCCC3)cc12)CC(C)C	0.9%	nt	-18%[46.1 µM]	nt	nt	-7%	-20%	nt
COc1ccc(Nc2nnc(-c3cc4c(ccc5ccccc54)oc3=O)s2)cc1	-0.4%	nt	-19%[46.1 µM]	nt	nt	-1%	-5%	nt
COc1ccc(OC)c(NC(=O)CSc2nc3scc(C)c3c(=O)[nH]2)c1	nt	-4%	13%	1%	?	nt	-15%	1%
COCCCNC(=O)c1ccc2c(=O)n(CC3CCCO3)c(=S)[nH]c2c1 (configuration not stated)	-9.3%	1%	1%	-2%	-1%	3%	9%	0%
O=C(Nc1ccc(-n2cnnn2)cc1)C1CCCN1C(=O)Nc1ccc(Br)cc1 (configuration not stated)	nt	-14%	nt	-1%	?	nt	9%	4%
COc1cc(/C=N/Nc2snc(SC)c2C#N)ccc1O	-0.4%	22%	?	-2%	-22%	-28%	39%[activator]	2%
COc1ccc(NS(=O)(=O)c2ccc(/C=C/C(=O)O)cc2)cc1S(=O)(=O)N1CCOCC1	nt	1%	-13%	1%	3%[46.1 µM]	nt	15%	9%
Cc1ccc(N(CC(=O)NC(C)c2ccccc2)S(=O)(=O)c2c(C)n[nH]c2C)cc1 (configuration not stated)	nt	2%	?	5%	?	nt	9%	17%
Cc1oc(-c2ccc(Cl)cc2)nc1CN1CCCC(C(=O)NCCc2ccc(Cl)cc2)C1 (configuration not stated)	0.2%	nt	18%[46.1 µM]	nt	4%[46.1 µM]	-2%	?	nt
CCOc1ccc(NS(=O)(=O)c2ccc(C(=O)NCCCN3CCOCC3)cc2)cc1	nt	3%	0%	-1%	?	nt	5%	4%
CN(CC(=O)Nc1c(Cl)cccc1Cl)C(=O)CCNS(=O)(=O)c1ccccc1C(F)(F)F	nt	nt	2%	3%	-15%	nt	-1%	12%
COc1ccc(Cl)cc1NC(=O)CN1CCN(C(=O)N2CCOCC2)CC1	nt	nt	18%	nt	24%	nt	-6%	-26%
Remaining list, next part.
SMILES	Cruzain inh Det	NS1 function inh	LASV entry inh	SARS PLpro yeast	MARV entry inh	Cruzain inh noDet	StopGo reporter	RE007 growth inh
COc1ccc(CNC(=O)CC(C)c2ccccc2)cc1 (configuration not stated)	nt	11%	nt	-1%	nt	nt	14%	0%
CC(=O)c1oc2ccccc2c1N	-1.9%	2%	1%	6%	8%	0%	0%	6%
N=Cc1c(O)n(-c2ccccc2)c(=O)n(-c2ccccc2)c1=O	nt	4%	nt	2%	nt	nt	-7%	6%
COc1ccc(OCc2nc3ccccc3n2Cc2ccc(C(C)(C)C)cc2)cc1	-5.8%	nt	-17%[46.1 µM]	nt	?	-24%	0%	nt
O=C(O)CCc1ccc(S(=O)(=O)Nc2cc(C(F)(F)F)ccc2N2CCCC2)cc1	nt	nt	-1%	-1%	-6%	nt	-5%	-3%
CCOC(=O)C1=C(C)N=c2s/c(=C\c3ccc(OC(C)=O)cc3)c(=O)n2C1/C=C/c1ccccc1 (configuration not stated)	-3.8%	34%	4%	4%	10%	?	-9%	6%
CC1c2cc3c(cc2CCN1C(=O)c1cccc(F)c1)OCCCO3 (configuration not stated)	nt	-22%	nt	-3%	nt	nt	-17%	7%
NC(=O)c1ccc(NC(=O)C2CC2)cc1	nt	nt	24%	2%	24%[46.1 µM]	nt	3%	-1%
CCNc1c(NS(=O)(=O)c2ccc(F)c(Cl)c2)c(=O)oc2ccccc12	nt	9%	12%	0%	-7%[46.1 µM]	nt	-16%	2%
CCN1CCN(C(=S)NC(CC(=O)c2ccccc2)c2ccccc2)CC1 (configuration not stated)	nt	-7%	-1%	0%	?	nt	39%[activator]	-2%
CC(Sc1ccc(Cl)cc1)C(=O)Nc1ccc2c(c1)OCO2 (configuration not stated)	-6.0%	-16%	2%	-25%	?	2%	7%	-29%
O=C(N/N=C/c1cc(O)ccc1Br)c1cccnc1	nt	-51%	nt	15%	nt	nt	20%	11%
CCOCCCNC(=O)CCC(=O)NNc1nc2ccccc2c2nc(-c3ccccc3)nn12	5.2%&-0.5%	4%	17%[46.1 µM]	12%	-13%[46.1 µM]	?	-6%&-2%	3%
O=C(NCc1cccnc1)c1ccc2c(=O)n(CCCN3CCCC3=O)c(=S)[nH]c2c1	0.2%	-5%	-9%	1%	-21%	-2%	22%	-7%[3.69 µM]
CCOCCCNC(=O)c1cc2c(-c3ccc(Cl)cc3)nn(C)c2s1	-1.3%	-31%	nt	-2%	nt	?	?	1%
CCn1c(=O)c(=O)n(CC)c2cc(N3CCCCC3)c(NC(=O)c3ccccc3OC)cc21	1.0%	nt	-2%[46.1 µM]	nt	0%[46.1 µM]	9%	0%	nt
Cc1ccc(NC(=S)NNC(=O)c2ccc(N3CCOCC3)c([N+](=O)[O-])c2)cc1Cl	-6.7%	22%	-18%	17%	-13%	-15%	-29%	2%
Cc1cc(C(=O)NCc2ccc3c(c2)OCO3)ccc1[N+](=O)[O-]	nt	10%	nt	-1%	nt	nt	35%[activator]	5%
CC(=O)c1ccc(NC(=O)CSc2nc(N3CCOCC3)nc(N3CCOCC3)n2)cc1	nt	5%	2%	1%	2%	nt	8%	4%
CCOc1ccc(NC(=O)c2cc(-c3ccc(C)c(F)c3)on2)c([N+](=O)[O-])c1	-2.8%	nt	-3%[46.1 µM]	nt	?	5%	-3%	nt
O=C(Cn1ncn2cccc2c1=O)N1CCCCC1	4.3%	12%	5%	-1%	19%	1%	-11%	0%
CSc1nc2[nH]c3c(c2c2ncnn12)CCCC3	-2.4%	9%	4%	-4%	4%[46.1 µM]	-8%	-15%	10%
FC(F)(F)c1cc(Oc2ccccc2)nc(-c2ccccn2)n1	1.5%	-31%	-2%	0%	16%	-6%	?	-2%
S=c1[nH]nc(-c2ccc(Cl)cc2)n1/N=C/C=C/c1ccco1	nt	5%	?	-2%	11%[46.1 µM]	nt	-13%	-1%
CC(C)Cc1nnc(NC(=O)CCC(=O)N2CCN(c3ccc(F)cc3)CC2)s1	nt	-2%	nt	2%	nt	nt	-19%	-1%
Other compounds
SMILES	Cruzain inh Det	NS1 function inh	LASV entry inh	SARS PLpro yeast	MARV entry inh	Cruzain inh noDet	StopGo reporter	RE007 growth inh
CCOC(=O)c1c(NC(=O)CSc2nnc(C)s2)sc2c1CCC(C)C2 (configuration not stated)	-15%	-8%	?	-2%	?	?	-22%	-2%
COc1nc2ccc(C)cc2cc1-c1noc(-c2ccccc2)n1	-4.0%	17%	2%	-4%	-7%	20%	4%	-1%
CCCC(C)NC(=O)c1ccc(OCc2ccc(Cl)cc2)c(OC)c1 (configuration not stated)	7.7%	-1%	?	?	-10%	?	14%	3%
CN1CCC(NC(=S)NC2CC2)CC1	nt	3%	8%	1%	2%[14.2 µM]	nt	37%[activator]	-6%
NS(=O)(=O)c1ccc(CCNC(=O)C(=O)NCC2OCCN2S(=O)(=O)c2cccs2)cc1 (configuration not stated)	nt	23%	nt	2%	nt	nt	0%	5%
O=C(CCc1c[nH]c2ccccc12)N/N=C/c1ccc2c(c1)OCO2	nt	8%	?	0%	?	nt	30%	12%
O=C(Cn1nnc(-c2ccc(F)cc2)n1)Nc1ccc2c(c1)OCCO2	nt	nt	-23%	-1%	?	nt	-11%	1%
Cc1cc(C)c(-c2c(O)c3cccc4c3n(c2=O)CCC4)c(C)c1	-1.1%	-5%	?	0%	-10%	-4%	-7%	-3%
O=[N+]([O-])c1ccccc1NC(=S)N/N=C/c1ccc(O)c(O)c1	nt	7%	nt	0%	nt	nt	-17%	-3%
O=C1C2C3C=CC(C3)C2C(=O)N1c1ccccc1 (configuration not stated)	2.9%	4%	4%	?	25%&25%	-15%	-9%	5%
Cc1cc(=O)n2nc(-c3ccc(C(F)(F)F)cc3)sc2n1	1.0%	8%	0%	8%	1%	3%	44%[activator]	2%
Cc1ccc(C(C(=O)NCC2CCCO2)N(Cc2ccccc2F)C(=O)Cn2nnc(-c3cccs3)n2)cc1 (configuration not stated)	-1.7%	5%	-2%	-1%	5%	?	-4%	-1%

Screening data: PubChem, National Center for Advancing Translational Sciences (NCATS)
